CDC25B CDK2 inh – human CDC25B-CDK2/CyclinA binding inhibition | AID 1259370 | z-score (no concentration beside the values) | 0.72% of 94,000 active | P30305+P24941 | HTRF CDC25B-CDK2/CyclinA binding, anti-His/anti-Flag; active compounds read high;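 further: score is relative to mean and SD of negative controls; strong numbers were not always called active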
TAR Tat displ – HIV-1 TAR-Tat binding disruption; HIV-1 TAR RNA, Tat peptide displacement FRET; active compounds read high; 0.6% of 100,000 active; AID 1259389; z-score (no concentration beside the values);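 further: score is relative to mean and SD of negative controls; some compounds called inactive have numbers as strong as hits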
* marks the source's active call; other numbers are inactive results; nt = not tested or not shown.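 How the source made its calls: active means z-score from 3 up in half or more of its runs; inactive means the rest.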

SMILES	CDC25B CDK2 inh	TAR Tat displ
Cn1nc(C(=O)N2CCN(c3cccc(Cl)c3)CC2)c2c1-c1ccccc1S(=O)(=O)C2	-1.5	0.53
O=C1CC(c2ccccc2)n2nc(N3C(=O)CCC3=O)nc2N1 (configuration not stated)	-1.4	nt
Cn1cccc1Cc1nnc(SCC(=O)NC2CCCC2)n1C	-2.3	-2.3
O=C(CSc1n[nH]c(-c2ccco2)n1)c1c[nH]c2ccccc12	-1.5	2.5
N#Cc1ccc(OC(=O)c2ccc([N+](=O)[O-])cc2)cc1	0.35	nt
Cc1cc(C)cc(Nc2nc3ccc(C)cc3n3nnnc23)c1	0.42	-0.72
O=c1[nH]nc(-c2ccc(N3CCCCC3)c([N+](=O)[O-])c2)c2ccccc12	-1.4	nt
CCCc1cc(=O)[nH]c(SCC(=O)Nc2nc3ccc(OC)cc3s2)n1	-0.11	-0.44
Cc1c(C)c(C)c(CSc2nnc(CC#N)n2C)c(C)c1C	-0.79	nt
CC(C)CN1C(=O)c2ccc(C(=O)c3ccc(C(=O)O)cc3)cc2C1=O	-3.1	nt
CCOc1ccc(/C(O)=C2\C(=O)C(=O)N(Cc3cccnc3)C2c2ccc(F)cc2)cc1 (configuration not stated)	-1.7	1.6
CC1(C)CC(=O)C2=C(C1)Nc1[nH]c(=S)[nH]c(=O)c1C2c1ccccc1 (configuration not stated)	1	nt
COc1ccc(C(=O)NC(=O)N=S(C)(=O)c2ccc(C(F)(F)F)cn2)cc1 (configuration not stated)	-0.75	nt
O=C(Nc1ccc2c(c1)nc1n2CCN(c2ccccc2)C1)C1CCCCC1	-4	-5.9
O=C(/C=C/c1cccnc1)c1ccc[cH-]1.[Fe+2].c1cc[cH-]c1	15*	nt
Cc1ccc(N2C(=O)C3N=NN(Cc4ccc(F)cc4)C3C2=O)cc1C (configuration not stated)	1.1	0.32
O=C(CCC(=O)n1ncc2ccc(Cl)cc21)NC1CCCc2ccccc21 (configuration not stated)	1.2	0.1
CC12CCC(c3c(C(F)(F)F)nc(N)nc31)C2(C)C (configuration not stated)	-2	nt
O=C(Cc1ccccc1)N1N=C(C2CCCCC2)CC1(O)C(F)(F)F (configuration not stated)	1.8	nt
Cc1cc(=O)n2nc(N3CCC(C(=O)N4CCN(c5ccccc5)CC4)CC3)sc2n1	-0.31	1.5

Single records (already shown). Order of values: CDC25B CDK2 inh, TAR Tat displ
N#Cc1ccc(OC(=O)c2ccc([N+](=O)[O-])cc2)cc1 in the list: 0.35, nt
O=C(/C=C/c1cccnc1)c1ccc[cH-]1.[Fe+2].c1cc[cH-]c1 in the list: 15*, nt
CC(C)CN1C(=O)c2ccc(C(=O)c3ccc(C(=O)O)cc3)cc2C1=O in the list: -3.1, nt

A second format for 7 compounds above:
SMILES | CDC25B CDK2 inh | TAR Tat displ
COc1ccc(C(=O)NC(=O)N=S(C)(=O)c2ccc(C(F)(F)F)cn2)cc1 (configuration not stated) | -0.75 | nt
O=C(Nc1ccc2c(c1)nc1n2CCN(c2ccccc2)C1)C1CCCCC1 | -4 | -5.9
O=C(/C=C/c1cccnc1)c1ccc[cH-]1.[Fe+2].c1cc[cH-]c1 | 15* | nt
Cc1ccc(N2C(=O)C3N=NN(Cc4ccc(F)cc4)C3C2=O)cc1C (configuration not stated) | 1.1 | 0.32
O=C(CCC(=O)n1ncc2ccc(Cl)cc21)NC1CCCc2ccccc21 (configuration not stated) | 1.2 | 0.1
CC12CCC(c3c(C(F)(F)F)nc(N)nc31)C2(C)C (configuration not stated) | -2 | nt
O=C(Cc1ccccc1)N1N=C(C2CCCCC2)CC1(O)C(F)(F)F (configuration not stated) | 1.8 | nt

Carrying on.
SMILES	CDC25B CDK2 inh	TAR Tat displ
COc1cc(NC(=O)C2CC(=O)NC3=C2C(=O)CCC3)c(OC)cc1Cl (configuration not stated)	-3.2	-0.96
Clc1ccc(N2CCN(C3=Cc4ccccc4C3)CC2)cc1Cl	0.04	nt
CCCc1nn2c(=O)cc(CSc3nnc(-c4ccc(C)cc4)o3)nc2s1	-0.57	1.3
CCOc1cccc2c1Oc1nc(-c3cc(Br)ccc3O)[nH]c(=O)c1C2	-0.93	1.1
COc1ccc2cc3cc(C(=O)NC4CCCC4)sc3nc2c1	-2.4	2.1
CC(C)(c1ccccc1)c1ccc(OCC(O)CN2CCCC2)cc1 (configuration not stated)	2.1	-0.22
O=C(C1CCN(S(=O)(=O)c2ccc3[nH]c4c(c3c2)CCCCC4)CC1)N1CCCC1	nt	0.9
Cc1cc(-c2ccc(C)c(S(=O)(=O)Nc3ccc(F)cc3Cl)c2)on1	nt	1.1
c1ccc(CC2CCN(Cc3nnc(-c4ccc5c(c4)OCO5)o3)CC2)cc1	-3.7	-0.06
CC(=O)N1c2ccc(S(=O)(=O)N3CCCC3C(=O)Nc3cc(C)ccn3)cc2CC1C (configuration not stated)	nt	0.2
COc1ccccc1OCCSc1nc2ccccc2n1CC(=O)NC1CC1	0.3	2.3
O=C1c2cccnc2C(=O)N1Cc1ccc(S(=O)(=O)N2CCCC2)cc1	nt	0.38
Cc1ccc(S(=O)(=O)NCCc2nc(-c3ccc(Cl)cc3)no2)cc1	-0.82	1.4
CCSc1nc2c(sc3ccccc32)c(=O)n1CCCC(=O)NC1CCCC1	-1.1	nt
CCCCCc1c(C)nn(-c2nc(CC(=O)Nc3nccs3)cs2)c1C	-0.76	-1.8
CN(C)CCCNCc1cccc(Oc2nnnn2-c2ccccc2)c1	nt	1.1
CCOC(=O)c1noc2ncnc(N3CCC(c4ccccc4)C3)c12 (configuration not stated)	nt	-0.66
O=C(NCCc1csc2c1CCCC2)Nc1ccccc1	nt	1.5
Cc1cc(C)c(C#N)c(SCc2ccc(C(=O)O)cc2)n1	-1.2	-0.97
CCCN(CCC)C(=O)CSc1nnc2cc(C)c3ccccc3n12	-1.3	1.8
Sc1oc(-c2ccccc2)cc1C=Nc1ccccc1	1.1	-2.1
CCN1CCCC1CNc1ncnc2onc(-c3ccc(F)cc3)c12 (configuration not stated)	nt	-1.2
COc1ccc(CNc2c3c(nc4nncn24)CCC3)cc1	-1.6	0.54
COC(=O)C1=C(C)NC2=C(C(=O)CC(C)(C)C2)C1c1cc2c(cc1Cl)OCO2 (configuration not stated)	-0.68	-1.3
NS(=O)(=O)c1ccc(NC(=O)Cn2ncc3c2-c2ccccc2OC3)cc1	-0.6	2
Cc1ccc(-c2n[nH]c(=O)c3c2CCCC3)cc1S(=O)(=O)N1c2ccccc2CC1C (configuration not stated)	0.62	-0.04
O=C(NCc1ccccn1)c1cnc2sc(N3CCCC3)nn2c1=O	nt	-1.3
CN(C(=O)c1cc2c(s1)-c1ccc(Cl)cc1S(=O)(=O)C2)c1ccc(F)cc1	-1.1	3
Cc1ccc(-c2ccc3nnc(C)n3n2)cc1	nt	1.7
CSc1ccc(C2C3=C(CC(C)(C)CC3=O)Nc3cc4c(cc32)OCCO4)cc1 (configuration not stated)	-1.6	nt
COc1ccc(Oc2ncccc2NC(=O)Nc2cccc(C(F)(F)F)c2)cc1	-1.1	nt
O=C(O)c1cccc(S(=O)(=O)Nc2ccc(O)c(Sc3nc4ccccc4s3)c2)c1	2.1	nt
CCOc1ccc(CCNc2nc3ccc(C)cc3n3cnnc23)cc1OCC	-1.2	0.63
CCOC(=O)C1=C(C)NC2=C(C(=O)C(C(=O)OC)C(C)C2)C1c1cccc(OC)c1OC (configuration not stated)	-1.1	0.48
CC(=O)N1CCC2(CC1)OC(=O)C(C)=C2C(=O)N1CCc2ccccc2C1	nt	1.3
Cc1onc(C(=O)NCCc2cccs2)c1CN1CCOCC1	nt	-1.2
Fc1ccc(OCc2nn3c(-c4ccncc4)nnc3s2)cc1	-0.03	-0.01
CC1CCc2cc(F)ccc2N1S(=O)(=O)c1ccc2c(c1)N(C)CCO2 (configuration not stated)	nt	0.97
O=C(Cn1c(=O)c2cccn2c2ccc(F)cc21)NCc1ccc2c(c1)OCO2	nt	1.2
N#C/C(=C\c1ccc(C2=CCOc3ccccc32)s1)S(=O)(=O)c1ccccc1	-1.8	nt
O=C1C=C(SCC(=O)c2ccccc2)SC(c2ccc(Cl)cc2)C1 (configuration not stated)	-2.3	nt
COCCCNC(=O)NC1COc2ccccc2C1 (configuration not stated)	nt	1
CCOC(=O)CN1CCOc2ccccc21	-0.01	0.7
CCc1c(C)nc2ncnn2c1Nc1ccc(Br)cc1	nt	0.05
O=C(NCc1cccc(Cl)c1)NC1COc2ccccc2C1 (configuration not stated)	nt	0.56
O=C(CCC(=O)N1CCc2cc(S(=O)(=O)N3CCc4ccccc4C3)ccc21)N1CCOCC1	nt	-1.3
COC(=O)C(C(=O)OC)=C(NC(N)=O)SC	-2.3	nt
CCOC(=O)C1CCN(c2nccc3nc(N4CCOCC4)ncc23)CC1	-0.93	-0.24
O=C1CC(c2ccc(F)cc2)c2c(n[nH]c2-c2ccccc2)N1 (configuration not stated)	0.83	0.39
CCc1nnc2c(Nc3ccccc3F)nc3ccccc3n12	nt	-1.7
NC(=O)C1CCN(C(=O)c2ccc(N3CCSc4ccccc43)s2)CC1	nt	0
CSc1[nH]c2ccccc2c(=O)c1C(=O)O	-1.3	2.7
CSc1ccc(CCNC(=O)C2=Cc3sc(C)c(C)c3CS2)cc1	nt	-0.65
CN1C(=O)C(O)(CC(=O)c2ccc(F)cc2)c2ccccc21 (configuration not stated)	-1.4	nt
CSc1ncc2c(=O)n(CC(=O)Nc3ccccc3F)cnc2n1	nt	1.6
Cc1ccc(N2NC(C)(CC(C)C)NC2=S)cc1 (configuration not stated)	0.38	nt
CSc1ccc(CNC(=O)c2ccc(Cn3c(=O)c4cccn4c4cccnc43)cc2)cc1	nt	0.75
COc1cc(CSc2nc3c(cnn3-c3ccccc3)c(=O)[nH]2)cc(OC)c1	nt	2.1
Fc1ccc(-n2nnc(-c3ccc(Cl)cc3)n2)cc1	-0.94	-0.33
O=C(CSc1nc2c(cnn2-c2ccc(Cl)cc2)c(=O)[nH]1)Nc1ccc(Br)cc1	nt	-0.19
Additional records follow.
SMILES	CDC25B CDK2 inh	TAR Tat displ
C#CCN1C(=O)C(O)(CC(=O)c2ccccc2O)c2ccccc21 (configuration not stated)	-0.65	nt
COc1ccc(S(=O)(=O)N2CCC(n3nnc4ccccc4c3=O)CC2)cc1	nt	1.3
Cc1ccccc1OC1C(=O)N(c2ccc(F)cc2)C1c1ccc2c(c1)OCO2 (configuration not stated)	-0.97	1.9
CCOC(=O)N1CCN(C(=O)c2cc3c(=O)n4ccccc4nc3n2C)CC1	nt	2.2
Cc1cccc(NCC(O)Cn2nnnc2-c2ccccc2)c1 (configuration not stated)	0.21	0.98
COc1ccc(-c2nc(=S)c3c([nH]2)Oc2ccccc2C3)cc1OC	0.7	1.6
CC(C)N1CCC2(CC1)N=C(c1ccc3c(c1)OCO3)CC(c1cc(Cl)ccc1O)N2 (configuration not stated)	0.3	nt
CCc1nnc2c(N3CCN(C(=O)c4ccco4)CC3)nc3ccccc3n12	nt	1.9
Cc1cn2c(=O)c(S(=O)(=O)Nc3ccc(C)c(C)c3)c(C)nc2s1	nt	0.15
O=C(Cn1c(NCCCO)nc2ccccc21)c1cccc(Br)c1	0.93	nt
CC1(C)Cc2ccccc2C(NNC(=O)C(F)(F)C(F)(F)C(F)(F)F)=N1	-0.08	nt
O=C(Cn1nc2c3scc(-c4ccc(F)cc4)c3ncn2c1=O)Nc1ccc(Br)cc1	nt	1.2
COc1cc2c(cc1OC)n(CC(=O)NC1CCCCC1C)n1c(C)cc(=O)nc21 (configuration not stated)	-1.9	2.7
CCOC(=O)C1CCN(C(=O)CN(C)c2nnc(N3CCCC3=O)s2)CC1	nt	0.76
O=C(O)Cn1c(=O)c2ccccc2n2ccnc12	-2.1	1.1
Cc1nn(CC(=O)NCCCN2CCOCC2)c(=O)c2c1sc1ccccc12	-2.7	2.2
O=C(Cc1cccc2ccccc12)NCCNC(=O)Cc1cccc2ccccc12	-8.7	nt
Cn1c(=O)c2c(-c3ccc(F)cc3)ccnc2n(C)c1=O	3.7	0
CC(C)c1ccc(S(=O)(=O)N2CCCC(C(=O)O)C2)cc1 (configuration not stated)	-0.73	0.97
Cc1ccc(NS(=O)(=O)c2ccc3nc(-c4ccccc4)[nH]c3c2)c(Br)c1	-0.52	nt
C=CCN(Cc1nc(-c2cccc(C)c2)no1)S(=O)(=O)c1ccc(F)cc1	-2.6	2.4
CCCCN1C(=O)c2cc(C(=O)Nc3ccc4c(c3)OCO4)nn2CC1(C)C(=O)NC1CCCC1 (configuration not stated)	nt	0.03
COC(=O)C1=C(Nc2cccc(-c3nn(C)cc3Br)c2)CSC1	1.2	nt
COc1ccc(-c2nc3c(C#N)c[nH]n3c2NC2CCCCC2)cc1	-1.8	0.84
CCCS(=O)(=O)N1CCCc2ccc(NS(=O)(=O)c3cccc(Cl)c3)cc21	nt	1.8
CCOC(=O)C(C)NC(=O)Nc1cn(CC(C)C)c(=O)c2ccccc12 (configuration not stated)	nt	1.1
Cc1ccc(NS(=O)(=O)c2ccc3c(c2)NC(=O)C(C)CS3)nc1 (configuration not stated)	nt	1
CC1=NC2c3c(oc(C(=O)NCc4ccc5c(c4)OCO5)c3C)CCC2S1 (configuration not stated)	nt	1.2
CCCN1C(=O)Cn2cccc2C1C(=O)NC1CCCCC1C (configuration not stated)	-1.9	-0.38
O=c1[nH]c2c(-c3ccccc3)sc(=S)n2c2ccccc12	-1.3	2
Cc1ccc2oc(C(=O)N(Cc3ccccc3)C3CCS(=O)(=O)C3)cc(=O)c2c1 (configuration not stated)	0.35	1.2
O=c1sc2ccccc2n1CCOc1ccc(Cl)cc1	0.85	2
O=C(Cn1c(=O)n(Cc2ccco2)c(=O)c2oc3ccccc3c21)Nc1cccc(F)c1	nt	17

Two entries picked at random from those above:
SMILES	CDC25B CDK2 inh	TAR Tat displ
O=c1[nH]c2c(-c3ccccc3)sc(=S)n2c2ccccc12	-1.3	2
CCCN1C(=O)Cn2cccc2C1C(=O)NC1CCCCC1C (configuration not stated)	-1.9	-0.38
